High-throughput results as filed in PubChem.
miR-21 reporter – miR-21 reporter, rising signal; HeLa miR-21 FLuc reporter, luciferase, 48 h; 340,000 tested, under 10 active; AID 2288; Potency, µM (doses to about 38.3 µM), for the others: at the top dose reporter change, positive = more light; active = well fitted rising curve with a large enough effect; inconclusive = small, poorly fitted or top-dose-only effect; inactive = no such curve, though single readings can be large or run the other way;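 also: % of control where 0% means no effect; miR-21 action dims this reporter so a rising signal means less miR-21 action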
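HeLa cells endogenously expressing miR-21, stably carrying CMV-driven firefly luciferase with a downstream miR-21 binding site, 2000 cells/well. Titrations up to approximately 40 uM, 48 hours; luciferase luminescence read.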
Rango complex inh – prevents formation of the Rango-importin beta complex. Potency, µM (titrated, usually from 92.2 µM), for the others: at the top dose inhibition of complex formation. AID 540263. Rango CFP/YFP FRET sensor + importin beta, 45 min. Q14974. 0.031% of 340,000 active; active = rising FRET ratio curve, often small or poorly fitted; inconclusive = mostly compound fluorescence or quenching in the first reads; inactive = flat curves in all reads;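 also: potency is read from the fitted curve at half-maximal effect; 0% = DMSO wells and 100% = buffer wells lacking importin beta; nearly all actives have a fitted effect of over 15% in size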
Target sequence (Q14974 whole entry, looked up): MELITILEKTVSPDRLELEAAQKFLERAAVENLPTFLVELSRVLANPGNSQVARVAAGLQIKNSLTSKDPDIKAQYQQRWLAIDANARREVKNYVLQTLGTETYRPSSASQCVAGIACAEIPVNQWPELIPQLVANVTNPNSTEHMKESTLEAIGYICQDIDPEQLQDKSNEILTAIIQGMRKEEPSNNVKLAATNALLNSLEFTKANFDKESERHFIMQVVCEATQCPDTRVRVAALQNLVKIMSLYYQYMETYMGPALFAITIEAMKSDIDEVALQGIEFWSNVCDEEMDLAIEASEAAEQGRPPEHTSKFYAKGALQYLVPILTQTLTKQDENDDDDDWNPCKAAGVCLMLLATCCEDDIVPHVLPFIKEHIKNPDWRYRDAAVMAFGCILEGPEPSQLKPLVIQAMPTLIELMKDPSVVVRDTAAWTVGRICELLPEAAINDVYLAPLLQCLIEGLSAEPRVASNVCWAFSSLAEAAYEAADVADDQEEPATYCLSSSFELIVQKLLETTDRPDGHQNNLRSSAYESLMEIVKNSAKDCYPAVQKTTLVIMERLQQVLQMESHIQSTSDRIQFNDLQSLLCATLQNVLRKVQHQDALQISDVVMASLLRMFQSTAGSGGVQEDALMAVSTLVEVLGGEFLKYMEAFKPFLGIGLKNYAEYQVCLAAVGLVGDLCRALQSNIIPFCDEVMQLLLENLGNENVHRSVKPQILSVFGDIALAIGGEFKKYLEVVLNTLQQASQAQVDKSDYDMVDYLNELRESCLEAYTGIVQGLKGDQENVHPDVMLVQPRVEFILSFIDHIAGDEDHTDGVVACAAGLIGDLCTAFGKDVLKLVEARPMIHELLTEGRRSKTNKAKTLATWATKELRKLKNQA
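FRET biosensor Rango (snurportin 1 IBB between N-terminal EYFP and C-terminal Cerulean), 50 nM in PBS/1 mM DTT/0.02% Tween-20/0.1% BSA, preincubated 5 min RT with compound; 0.125 microM importin beta added, 45 min RT, CFP/YFP FRET ratio read.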
Rango dissoc inh – prevents RanGTP from dissociating the Rango-importin beta complex; Potency, µM (series often up to 46.1 µM), without a hit: at the highest dose activity change, negative = inhibition; AID 540253; O95149+P62826; Biochemical FRET Rango-importin beta, RanGTP-induced dissociation; 0.071% of 340,000 active; active means falling FRET ratio curve, often poorly fitted, with flat reads before Ran was added; inconclusive means other falling curves, or compound fluorescence or quenching; inactive means flat or rising ratio curve;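 also: potency is read from the fitted curve at half-maximal effect; % of control where 0% means no effect; nearly all actives have a fitted effect of over 45% in size; -100% = wells without RanGTP and RCC1; the record marks most hits as doubtful in a second field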
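Rango/importin beta premix (0.1/0.25 uM final), PBS + 1 mM DTT + 0.02% Tween-20 + 0.1% BSA; cpd 5 min RT; FRET pre-read; + RanGTP-RCC1 (0.6 uM Ran, 2 mM GTP, 0.2 uM RCC1); 45 min RT; FRET post-read, ex 430, em 486/530 nm.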
GLA inh pH 4.5 – blocks human alpha-galactosidase A at pH 4.5 | P06280 | purified enzyme, 4-MU-alpha-Gal fluorescence, pH 4.5 | activity change, negative = inhibition, % at 105 µM | 230,000 tested, under 10 active | AID 1467; inconclusive = small, poorly fitted or top-dose-only inhibition, or a rising curve; inactive = flat fitted curve, though single readings scatter; no compound was filed as active;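 also: 0% = full activity with enzyme and -100% = basal without enzyme; dose as in the result columns while the protocol names 77 µM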
An asterisk follows results filed as active; ? = inconclusive; . = no result given.

SMILES	miR-21 reporter	Rango complex inh	Rango dissoc inh	GLA inh pH 4.5
COc1ccc(C)cc1NC(=O)NCc1ccc(F)cc1	-12.1%	?	?	10.0
O=C1C=C(c2ccc(O)cc2)C[C@@H](c2ccc3c(c2)OCO3)C1	.	-2.6%	4.8%	.
Cc1ccsc1/C=N\NC(=O)c1ccc2c(c1)OCO2	-32.0%	0.6%	4.9%	-6.6
COC(=O)c1cccc(NC(=O)c2cccc(OC)c2)c1	-42.5%	-3.9%	3.6%	2.1
CCOC(=O)c1cc2[nH]c3ccccc3c2[n+](-c2ccc([N+](=O)[O-])cc2)c1C	8.5%	0.2%	-3.5%	1.9
COCCNc1nnc(SCC(=O)NC(=O)c2ccccc2)s1	.	3.2%	-16.5%	.
Cc1nn(Cc2c(Cl)cccc2Cl)c(C)c1NC(=O)c1cc(C(C)C)on1	18.2%	-1.0%	15.7%	3.1
COc1ccccc1CCC(=O)OCC(=O)N1CCN(S(=O)(=O)c2ccc(C)cc2C)CC1	.	?	-24.4%	.
CCOc1ccccc1NC(=O)c1nc(S(=O)(=O)Cc2ccccc2)ncc1Cl	?	?	-9.9%	.
C/C(=N\NC(=O)c1sccc1C)c1ccncc1	-73.7%	-4.4%	1.6%	.
NC(=O)C1CCN(C(=O)C2CCC(=O)N(C3CCCCCC3)C2)CC1 (stereo not drawn)	-2.6%	1.0%	0.0%	.
N#CCSc1nccc(/C=C/c2ccccc2)n1	-45.2%	-5.1%	1.5%	-2.6
Cc1nc2c3c(sc2c(=O)[nH]1)NC(=O)CC3c1ccccc1Cl (stereo not drawn)	0.3%	2.8%	9.5%	3.3
Cc1cccc(CN2CCC(C(=O)Nc3ccc(-n4nc(C)cc4C)cc3)CC2)n1	-1.5%	-1.4%	0.2%	.
Cc1noc(C)c1C(=O)N1CCN(CCc2ccccc2)CC1	-5.0%	2.8%	-9.8%	-14.7
COC(=O)Nc1ncc(CN2CCC(c3ccccc3)CC2)s1	-3.0%	0.8%	0.2%	-9.5
O=C1CC(c2ccccc2)CC(O)=C1C=NCCN1CCN(C(=O)Nc2ccccc2)CC1 (stereo not drawn)	-5.2%	-1.9%	1.0%	-0.9
CCN(CC)S(=O)(=O)c1ccc(S(=O)(=O)N(CC(=O)Nc2ccccc2)CC2CCCO2)cc1 (stereo not drawn)	.	-3.6%	4.1%	.
CC(=O)NCCOc1nc(N(C)C)nc(N2CCCCC2)n1	-2.2%	0.4%	-11.7%	4.0
O=C(CSc1nccn1-c1cccc(Cl)c1)Nc1ccc2c(c1)OCCO2	-22.1%	1.5%	16.4%	-0.7
CN(C)C(=O)Cn1cnc2c(cnn2-c2ccccc2Cl)c1=O	-4.5%	2.1%	1.1%	4.7
COc1ccc(CCNC(=O)COc2ccc(S(=O)(=O)N3CCCC3)cc2)cc1	2.7%	6.7%	27.8%	1.6
CCC(C)(C(=O)NC1CCCC1)N(Cc1cccs1)C(=O)c1ccc2c(c1)OCO2 (stereo not drawn)	-7.8%	0.9%	-11.6%	1.3
COc1ccc(S(=O)(=O)N2CCN=C2SCc2cccnc2)cc1	2.6%	-2.9%	-6.5%	-1.2
CC(C)(C)C(=O)Nc1sc2c(c1C#N)CCN(Cc1ccccc1)C2	-8.9%	?	?	.
N#Cc1c(N)sc(=S)c2c1CCCCC2	-6.9%	?	?	4.0
CCOc1cc(C(=O)Nc2ccccc2N2CCOCC2)ccc1OCC(=O)N1CCCCC1	3.6%	3.0%	7.4%	3.3
CCOC(=O)c1cccc(NC(=O)c2cc(C)nn2-c2ccccc2)c1	7.1%	-0.9%	-0.6%	.
CS/C(=N\S(=O)(=O)c1cccs1)Nc1cccc(Cl)c1C	-3.3%	-4.3%	2.7%	9.5
CC(C)CC(OC(=O)c1cccs1)C(=O)NCC1CCCO1 (stereo not drawn)	-0.6%	-1.3%	1.4%	-4.2
CC1CN(CCCCOc2ccc(C(C)C)cc2)CC(C)O1 (stereo not drawn)	10.6%	1.6%	16.2%	-2.4
O=C(N/N=C/c1c[nH]c2ccccc12)c1sc2ccccc2c1Cl	-57.0%	?	-4.3%	-2.9
Cc1csc(N/N=C/c2ccc(O)c([N+](=O)[O-])c2)n1	-23.5%	-2.9%	-1.3%	-4.3
Clc1ccc(-c2cc(-c3ccccn3)on2)c(Cl)c1	2.9%	-7.9%	1.2%	-8.9
COc1ccc(NC(=O)C2CCCN(c3cc(C)nc4ncnn34)C2)cc1 (stereo not drawn)	-5.2%	3.3%	10.6%	10.4
CC1=C(C(N)=O)C(c2cccnc2)n2nc(-c3cccc(Cl)c3)nc2N1 (stereo not drawn)	-8.2%	0.8%	5.1%	-8.4
CC(=O)NCc1ccc(S(=O)(=O)N2CCCN(C)CC2)cc1	0.3%	-2.9%	-15.9%	.
C/C(=C\c1cc(C(=O)O)c(C)o1)CO	-6.7%	0.2%	-14.0%	7.3
Cc1ccc(NC(=O)C2CCN(C(=O)NC3CCCCC3)CC2)cc1	-11.0%	-1.2%	3.0%	6.7
CCCCNC(=O)Cc1c(O)c2ccccc2[nH]c1=O	1.1%	-2.7%	1.3%	1.6
CSc1nc(C)nc(C2CC2)c1C#N	1.9%	2.0%	0.2%	4.6
N#CCC(=O)N/N=C/c1ccc(SCC(=O)Nc2ccccc2)o1	-2.5%	?	-23.5%	-11.9
CC1=CCC2C(=O)N(c3cccc(C(=O)N(C)C4CCCCC4)c3)C(=O)C2C1 (stereo not drawn)	-0.4%	?	-6.9%	-6.2
COc1ccc(S(=O)(=O)N2CCC3(CC2)OCCN3S(=O)(=O)c2ccc(OC)cc2)cc1	.	0.1%	-1.0%	.
O=C(NCCCN1CCOCC1)c1ccc(CS(=O)(=O)Cc2ccc(Cl)cc2)o1	-1.7%	1.6%	7.1%	-9.8

Reformatted comma-delimited: part of the list above
structure,miR-21 reporter,Rango complex inh,Rango dissoc inh,GLA inh pH 4.5
Cc1noc(C)c1C(=O)N1CCN(CCc2ccccc2)CC1,-5.0%,2.8%,-9.8%,-14.7
COC(=O)Nc1ncc(CN2CCC(c3ccccc3)CC2)s1,-3.0%,0.8%,0.2%,-9.5
O=C1CC(c2ccccc2)CC(O)=C1C=NCCN1CCN(C(=O)Nc2ccccc2)CC1 (stereo not drawn),-5.2%,-1.9%,1.0%,-0.9

Continuation:
SMILES	miR-21 reporter	Rango complex inh	Rango dissoc inh	GLA inh pH 4.5
O=C(/C=C/c1ccco1)NCc1ccco1	-7.0%	1.0%	0.0%	1.1
Cc1cc(C)cc(NC(=S)Nc2ccc(Cl)c(Cl)c2)c1	17.4%	-1.0%	-6.0%	1.3
CC1(C)CC(=O)C2=C(C1)N(C1CCCCC1)C(=O)C2(O)C(F)(F)F (stereo not drawn)	-0.9%	-1.1%	1.8%	-2.1
CCOc1ccc(S(=O)(=O)N2CCCC(C(=O)NCc3ccncc3)C2)cc1 (stereo not drawn)	16.9%	0.5%	32.0%	.
COc1ccc(S(=O)(=O)N2CCN(C(=O)Cc3ccsc3)CC2)cc1	.	1.5%	-0.3%	.
Cc1ccccc1CNC(=O)c1ccccc1N	-0.4%	1.0%	12.0%	1.8
Cc1ncc(C[n+]2csc(CCOC(=O)CC3C4CC5CC(C4)CC3C5)c2C)c(N)n1 (stereo not drawn)	-9.0%	0.3%	-0.7%	-2.9
Cc1ccc(OCC(=O)N2CCN(C(=O)Cc3ccccc3)CC2)cc1	-1.6%	-1.9%	3.1%	0.2
Cc1cccc(OCCc2c(C)[nH]c(=S)[nH]c2=O)c1	26.4%	-0.2%	5.1%	2.4
CCN(CC)CCN(C(=O)c1ccc(C(C)=O)cc1)c1nc2ccc(Cl)cc2s1	-36.6%	4.9%	-3.9%	4.5
Cc1ccc2c(c1)N(CC(=O)Nc1ncccc1C)C(=O)C(C(C)C)O2 (stereo not drawn)	0.7%	1.1%	4.4%	.
COc1cc(NC(=O)COC(=O)c2ccccc2F)cc(OC)c1	-10.7%	3.5%	1.4%	8.5
COc1ccc(-c2cc(C(=O)NCc3ccco3)c3ccccc3n2)cc1	-7.0%	-1.6%	2.2%	.
CC1CCN(S(=O)(=O)c2ccc(S(=O)(=O)NCc3cccnc3)cc2)CC1	1.5%	?	7.5%	0.9
Cc1ccc(/C=C2\SC(=S)N(CCC(=O)NNC(=O)c3ccc(O)cc3)C2=O)cc1	-1.0%	1.4%	4.2%	.
CC(=O)Nc1ccc(NC(=O)C(C)OC(=O)C2CCCC2)cc1 (stereo not drawn)	.	-0.2%	6.0%	.
O=C(CN1C(=O)/C(=C\c2ccc(F)cc2)Oc2ccccc21)NCc1ccco1	-7.9%	-0.3%	16.8%	5.9
Cc1cc(C)nc(SC2CC(=O)N(c3ccc(Br)cc3)C2=O)n1 (stereo not drawn)	0.3%	7.9%	-14.5%	.
Cc1ccccc1-n1c(SCC(=O)c2c(N)n(C)c(=O)n(C)c2=O)nc2sc3c(c2c1=O)CCCC3	-3.7%	-4.1%	-9.9%	6.6
CN(CC(=O)Nc1sc2c(c1C#N)CCCCC2)Cc1nc2ccccc2c(=O)[nH]1	-1.9%	0.9%	5.7%	-24.2
Cc1cccc(C2c3[nH]c4ccccc4c3CCN2Cc2ccc(C)s2)n1 (stereo not drawn)	-2.7%	-1.3%	-11.5%	0.9
CCN(CC(=O)Nc1cccc(OC)c1)C(=O)c1ccncc1	-0.4%	3.7%	-12.3%	.
Cc1ccc(SCC(=O)Nc2ccccc2C(=O)O)cc1	-23.8%	0.5%	0.3%	9.0
Cc1sc2ncnc(SCC(=O)N3CCCC(C(F)(F)F)C3)c2c1C (stereo not drawn)	-1.3%	-1.3%	1.8%	.
O=C(CCn1c(=O)sc2ccccc21)NCc1ccc2c(c1)OCO2	-24.1%	?	0.7%	2.6
CCOC(=O)c1oc2ccc(Br)cc2c1NC(=O)CN1CCN(C)CC1	-14.9%	-2.1%	-2.0%	-0.1
CC(=O)N1N=C(C)CC1c1ccc(O)cc1 (stereo not drawn)	-3.8%	-3.2%	2.0%	-14.7
CN1CCN(Cc2cn(C)nc2-c2ccccc2F)CC1c1ccccc1 (stereo not drawn)	-0.3%	-1.6%	-16.5%	4.5
COc1ccc2oc(-c3ccccc3)c(C(=O)O)c2c1	-7.0%	-1.9%	4.1%	.
O=C1N=C(N2CCOCC2)SC1=C1CCCCC1	-36.4%	1.4%	-3.1%	-0.4
COc1cc(/C=N/NC(N)=O)cc(Br)c1OCc1ccccc1C	-8.7%	-2.8%	0.3%	2.5
Cc1ccc(C2(C)NC(=O)N(Cc3c(C)noc3C)C2=O)cc1 (stereo not drawn)	-10.4%	1.8%	9.2%	4.8
O=C(NNC(=S)Nc1ccccc1)c1cc(Br)ccc1Cl	-5.1%	-0.5%	-10.5%	.
CCOc1ccccc1C(=O)Nc1ccccc1-c1ccccc1	12.7%	-2.7%	-16.5%	0.8
COc1ccccc1NC(=O)c1ccc(NC(=O)C2COc3ccccc3O2)cc1 (stereo not drawn)	-0.7%	2.1%	-1.0%	.
CCCCC(CC)C(=O)NCc1ccccc1OC (stereo not drawn)	-1.3%	-6.2%	4.9%	4.4
CSc1nc2ccc(NC(=O)CSc3nnc(N)s3)cc2s1	-25.5%	3.9%	0.2%	3.5
Oc1c(C=Nc2ccccc2Cl)[nH]c2ccccc12	-55.2%	?	?	?
Cc1cc(C)nc(NS(=O)(=O)c2ccc(NS(=O)(=O)c3ccc(C#N)cc3)cc2)n1	-1.8%	-0.9%	16.9%	.
N#Cc1c(-c2ccccc2)nc(SCc2cccc(C(F)(F)F)c2)[nH]c1=O	4.9%	2.1%	0.0%	.
O=C(O)c1cccc(N/N=C/c2cccs2)c1	-60.9%	-1.3%	-9.8%	0.9
O=C(COC(=O)COc1ccc(Cl)cc1Br)NCCC1=CCCCC1	.	?	-2.0%	.
COc1c(Cl)ccc(Cl)c1C(=O)OCC(=O)O	-8.1%	0.2%	0.2%	-12.3
Cc1ccc(C2=[N+]([O-])C3(CCCCC/C3=N\NC(N)=O)N(O)C2(C)C)o1 (stereo not drawn)	-1.0%	0.0%	19.9%	4.3
COP(=O)(OC)c1nc(-c2cccc3ccccc23)oc1NCc1ccccc1	-9.9%	2.6%	0.2%	21.4
CCCc1cc(=O)[nH]c(SCC(=O)Nc2nc(-c3ccccc3)cs2)n1	-0.2%	-1.8%	20.2%	-3.3

A portion of the library (hit frequency here may not be typical).
